Source: PubChem BioAssay (several laboratories)
CSC inhib: cancer stem cell inhibition; hit rate 1.1% among 300,000; AID 2717; cancer stem cell-like cells viability, luminescence; inhibition, % at 7.5 µM;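 active means mean at 75% or more and at least half the replicates too; inconclusive means mean and replicates disagree; tested in HMLE shEcad cells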;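 further: 0% = median of negative and 100% = median of positive control wells; the first replicate is given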
Rce1 inhib: blocks yeast Ras-converting enzyme. Q03530. yeast membranes, quenched prenylated peptide cleavage fluorescence. calls only. hit rate 0.27% among 290,000. AID 2563;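 active means fall in fluorescence gain of 50% or more versus controls, with final raw signal at or below 3038400; inconclusive means same 50% fall but final raw signal above 3038400; inactive means fall in fluorescence gain under 50%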;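 further: plate controls were neutral control wells for no effect and wells lacking membranes for full effect; tested at 10 µM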
eIF4H inh: inhibitors of RNA binding by human eIF4H | eIF4H fluorescence polarization binding assay | AID 2012 | hit rate 0.94% among 290,000 | inhibition, % at 35 µM | Q15056;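 active means 50% or more with normal probe brightness, or confirmed in later tests; inconclusive means above 50% with abnormal brightness, or retests that disagree; inactive means below 50% or failed in later tests; about a fifth of its hits are not listed in these tables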;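 further: calls also rest on retests at 20 µM and on dose response follow-up; 0% = protein and probe with vehicle and 100% = probe without protein; strong numbers were not always called active; many hits fall short of the cut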
UUG fidelity: yeast start codon fidelity modulation | S. cerevisiae UUG-firefly luciferase reporter, luminescence/redox ratio | activity score, % at 18.7 µM | hit rate 0.13% among 350,000;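 active means replicate mean at a twofold rise or more, about +100% in these data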;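 further: firefly luciferase made from a UUG start codon reports start codon fidelity; reporter light over untreated wells divided by growth signal over untreated wells; some hits fall short of that in this replicate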
MT1-MMP act inh: MT1-MMP (human) activation inhibition | P50281 | HT1080 RFP-PRO-GFP cells, GFP/RFP ratio fluorescence, overnight; percent of plate control window, DMSO zero | GFP/RFP ratio change, % at 20 µM | hit rate 0.061% among 360,000 | AID 651647;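 active means GFP/RFP ratio change of at least 30% with cell ATP level not reduced by more than half and red fluorescence within 50% of control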; further: strong numbers were not always called active
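Assay system: HT1080 cells carrying an RFP-PRO-GFP reporter | Dosing: Single dose of 20 µM compound, 1% DMSO final | Incubation: Cells overnight before dosing, compound overnight, 37 °C, 5% CO2 | Evaluation: GFP/RFP fluorescence ratio | Control set: DMSO and RFP-L50D-GFP cell wells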
PABP FP inh: blocks human PABP binding to poly(A) RNA. AID 2014. inhibition, % at 35 µM. fluorescence polarization. hit rate 1% among 290,000;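 active means 50% or more with normal probe brightness, or confirmed in later tests; inconclusive means above 50% with abnormal brightness, or retests that disagree; inactive means below 50% or failed in later tests; about a fifth of its hits are not listed in these tables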;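 further: calls also rest on retests at 20 µM and on dose response follow-up; controls were probe without protein and protein plus probe with vehicle; some compounds called inactive have numbers as strong as hits; many hits fall short of the cut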
Target sequence (P11940 whole entry, looked up): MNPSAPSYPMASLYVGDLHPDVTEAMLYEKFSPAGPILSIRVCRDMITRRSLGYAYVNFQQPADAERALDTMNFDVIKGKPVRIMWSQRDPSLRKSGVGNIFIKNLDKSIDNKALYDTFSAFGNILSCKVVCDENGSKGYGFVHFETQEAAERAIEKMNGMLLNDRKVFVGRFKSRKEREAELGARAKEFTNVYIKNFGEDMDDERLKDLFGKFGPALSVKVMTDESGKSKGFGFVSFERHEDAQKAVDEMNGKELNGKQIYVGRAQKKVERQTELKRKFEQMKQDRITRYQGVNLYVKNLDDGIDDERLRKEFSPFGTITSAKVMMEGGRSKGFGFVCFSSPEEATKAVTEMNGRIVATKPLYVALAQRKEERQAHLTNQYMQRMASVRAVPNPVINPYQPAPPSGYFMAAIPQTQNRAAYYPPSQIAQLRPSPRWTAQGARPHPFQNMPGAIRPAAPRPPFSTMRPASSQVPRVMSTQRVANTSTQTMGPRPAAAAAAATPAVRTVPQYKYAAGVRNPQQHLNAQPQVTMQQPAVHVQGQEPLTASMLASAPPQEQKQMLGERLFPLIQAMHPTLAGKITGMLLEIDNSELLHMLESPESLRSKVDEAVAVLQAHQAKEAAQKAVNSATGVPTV
Env fusion inh: inhibitors of HIV Env-mediated cell fusion. inhibition, % at 12.3 µM. HeLa-JRFL Env/CEM21 cell fusion, luciferase. hit rate 1.1% among 360,000;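 active means mean replicate inhibition score of at least 50 and every replicate individually at or above 50; inconclusive means only one of the two criteria met; inactive means mean below 50 and not all replicates reaching 50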;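 further: 0% = plate neutral controls and 100% = maraviroc near 300 nM; one replicate is shown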
eIF4H inh retest: recorded beside eIF4H inh, whose call it bears; inhibition, %; compound at 20 µM; confirmation average;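 mean of two retest wells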
PABP FP inh retest: further read-out of PABP FP inh, marked with its call; inhibition, %; compound at 20 µM; confirmation repeats;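 mean of two retest wells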
MT1-MMP act inh RFP: further read-out of MT1-MMP act inh, marked with its call; RFP signal change, %; measured here: RFP expression control read;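 0 = vehicle wells; hits needed this value within 50% of zero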
The depositor's hits bear a star; i = inactive; ? = inconclusive; . = not tested or not shown; & = joins results of further samples.

Sample of the layout (3 entries):
SMILES	CSC inhib	Rce1 inhib	eIF4H inh	UUG fidelity	MT1-MMP act inh	MT1-MMP act inh RFP	PABP FP inh	Env fusion inh	others
COc1ccccc1-c1nnc(SCC(=O)O)n1C	.	i	0.9	-12.1	2.2	-2.6	16.9	.
COc1ccc(C)cc1-n1c(SCC(=O)NC2CC2)nc2ccccc2c1=O	7.4	.	.	1.8	1.7	-0.9	.	6.9
COc1cc2c(cc1OC)C1CCc3cc4c(cc3C1N=C2)OCO4 (stereo not drawn)	.	.	.	-10.4	1.5	-4.3	.	-64.4

The listing, repeating the preview:
SMILES	CSC inhib	Rce1 inhib	eIF4H inh	UUG fidelity	MT1-MMP act inh	MT1-MMP act inh RFP	PABP FP inh	Env fusion inh	others
COc1ccccc1-c1nnc(SCC(=O)O)n1C	.	i	0.9	-12.1	2.2	-2.6	16.9	.
COc1ccc(C)cc1-n1c(SCC(=O)NC2CC2)nc2ccccc2c1=O	7.4	.	.	1.8	1.7	-0.9	.	6.9
COc1cc2c(cc1OC)C1CCc3cc4c(cc3C1N=C2)OCO4 (stereo not drawn)	.	.	.	-10.4	1.5	-4.3	.	-64.4
C[C@@H]1CC[C@@]2(O[C@H](CCO)C[C@H](O)[C@H]2O)O1	-7.4	i	8.0	-20.2	-1.2	0.7	-4.5	15.4
O=C(CCN1CCN(C/C=C/c2ccccc2)CC1)Nc1ccccc1	7.7	i	-3.5	-9.3	4.9	9.7	-5.2	13.2
COC(=O)c1ccc(NC(=O)CN2CCN(S(=O)(=O)c3ccc(Br)cc3)CC2)cc1	-6.4	i	-18.7	-11.2	-1.6	-0.7	-9.0	-7.3
Cc1ccc(NCc2nnc(SCC(N)=O)n2CC2CCCO2)c(C)c1 (stereo not drawn)	-11.0	i	0.0	-9.4	.	.	4.2	-15.2
c1ccc(C(CN2CCOCC2)c2ccccc2)cc1	-18.5	i	0.4	-3.9	5.4	5.1	12.8	19.6
CCC(=O)Nc1cccc(NC(=O)CSc2nnc(C3CC3)n2C)c1	.	i	0.2	27.3	5.3	3.9	1.5	-18.1
Clc1ccc(Cn2ncc3c(NCc4cccnc4)ncnc32)cc1	-4.7	i	-0.9	.	-6.8	-22.3	-11.4	.
CCOC(=O)N1CCN(C(=O)CCN2C(=O)/C(=C\c3ccc(OC)c(OC)c3)SC2=S)CC1	.	.	.	-21.4	-4.7	-9.3	.	-2.3
COc1ccc(NS(=O)(=O)c2cc(C(=O)NNC(=O)c3ccncc3)ccc2OC)c(OC)c1	-16.3	.	.	-3.0	-3.8	1.6	.	16.1
COc1ccc(C(=O)COC(=O)CCN2C(=O)C3C4C=CC(C5CC45)C3C2=O)cc1 (stereo not drawn)	.	i	-10.4	15.7	1.3	2.3	-15.1	5.3
NC(=O)C1CCN(C(=O)c2ccc(C(F)(F)F)cc2)CC1	-2.5	i	-0.2	-14.4	3.1	0.3	-0.4	.
CCOc1ccc(NC(=O)N2CC(C)OC(C)C2)cc1 (stereo not drawn)	10.4	i	-3.6	-7.9	-2.1	2.3	-0.7	-8.3
Clc1ccc(/C=C/c2nc(Cl)c(-c3ccc(Cl)cc3)c(Cl)n2)cc1	21.5	i	-1.3	-24.2	-1.1	1.8	-2.6	4.2
CN(C)S(=O)(=O)c1cccc(C(=O)OCC(=O)Nc2sccc2C#N)c1	-11.5	i	?	-14.3	-4.4	3.8	?	.
O=C1S/C(=C\C=C\c2ccco2)C(=O)N1c1ccccc1	-5.8	i	92.2	.	-9.1	-0.4	-13.6	-46.9	eIF4H inh retest=31.4;PABP FP inh retest=27.9
Cc1ccc(C(=O)NCCc2ccc(F)cc2)s1	.	i	1.6	-10.7	6.0	0.5	-3.7	-18.9
CCN(CC)S(=O)(=O)c1cccc(C(=O)Nc2cc(C)on2)c1	-8.8	i	-0.4	6.0	1.3	3.3	-1.3	8.0
c1nc(N2CCC3(CC2)OCCO3)c2c3c(sc2n1)CCCC3	-8.4	i	-9.4	-16.3	-3.4	-8.5	5.6	.
CCOc1ccccc1C1NC(=O)NC(C)=C1C(=O)OCc1ccccc1 (stereo not drawn)	-7.1	i	-1.5	-24.4	-0.5	-0.7	1.2	37.2
CCN(C[C@H]1N[C@@](C)(C(=O)OC)[C@H]2C(=O)N(Cc3ccccc3)C(=O)[C@@H]12)C(=O)NC(C)C	.	.	.	-15.2	2.7	3.6	.	-31.3
CC(Oc1ccc(C#N)cc1)C(=O)c1ccc(F)c(F)c1 (stereo not drawn)	-5.5	i	2.5	-15.3	-3.1	-3.9	1.0	-14.1
COc1ccc(NC(=S)N2CCN(S(=O)(=O)c3ccccc3)CC2)cc1OC	-7.0	i	4.0	-10.9	1.5	5.5	-10.9	19.1
O=C(CC(C(=O)N1CCc2ccccc21)n1ccnc1)NCc1ccccc1 (stereo not drawn)	-8.7	i	-5.8	.	1.9	5.9	-7.8	.
CC[C@]12c3[nH]c4ccccc4c3CCN1C(=O)C(CC(=O)NCc1ccco1)C[C@@H]2C(=O)N1CCN(C(=O)c2ccco2)CC1 (stereo partly drawn)	-20.6	.	.	9.3	-0.4	-3.3	.	.
Cc1nnc(NC(=O)c2ccc3c(c2)OCO3)s1	14.4	i	5.9	-27.0	-0.8	2.0	9.5	-31.3
O=C(NCc1ccccc1)c1nccnc1CO	-10.4	i	-11.6	-7.5	1.6	4.1	3.0	-5.7
Cc1cc(C)n2nc(SCC(=O)Nc3c(C)n(C)n(-c4ccccc4)c3=O)nc2n1	-3.7	i	-1.9	-18.2	0.4	2.7	-3.5	.
C[C@H]1CN([C@@H](C)CO)S(=O)(=O)c2ccc(-c3ccncc3)cc2O[C@H]1CN(C)C(=O)c1cccc(F)c1	.	.	.	0.8&-5.6&-8.0	0.1	3.9	.	7.8
CCOC(=O)Cc1csc(NC(=O)COc2ccc3c(C)cc(=O)oc3c2)n1	-9.1	i	22.6	.	-3.0	-1.9	7.1	-6.4
O=C(CCn1c(=O)c2sccc2n(CC(=O)OCc2ccccc2)c1=O)NCc1ccco1	4.8	i	-2.0	4.6	11.1	-1.4	-0.5	-6.2
O=C(O)C1CCN(C(=O)c2scc3c2OCCO3)CC1	-9.7	i	-3.9	-10.7	3.4	3.9	9.4	-26.8
COc1ccc(/C=C2/SC(=S)N(c3ccc(S(=O)(=O)Nc4nccs4)cc3)C2=O)cc1	9.2	i	27.8	.	2.4	-3.8	6.8	2.2
CC1(C)Cc2ccccc2C2=C(C(=O)N3CCCCCC3)C(=O)C(=O)N21	-17.9	i	-9.5	.	1.2	-1.2	-7.3	10.1
COc1ccc(-n2c(SCC(=O)NCC3CCCO3)nc3c([nH]c4ccccc43)c2=O)cc1OC (stereo not drawn)	-7.5	i	-8.6	-16.6	-0.9	1.0	-4.0	-11.6
Cc1cccc(NC(=S)NC2CC3CCC(C2)N3Cc2ccco2)c1 (stereo not drawn)	-19.1	i	10.7	-13.0	5.1	4.3	-4.1	-22.1
COc1cccc(N(CC(=O)NCc2ccccc2)C(=O)CCC(=O)Nc2nccs2)c1	0.2	i	2.6	-2.8	-4.2	-2.0	4.4	0.3
O=C(/C=C/c1ccc(Cl)cc1Cl)N1CCN(c2ccccc2[N+](=O)[O-])CC1	33.4	i	-0.6	-6.6	-0.2	1.0	23.1	.
C[C@H](CO)N1C[C@H](C)[C@@H](CN(C)S(=O)(=O)c2ccc(F)cc2)Oc2c(NS(=O)(=O)c3ccc(F)cc3)cccc2C1=O	.	.	.	-15.9	-1.4	-1.1	.	-134.2
CCOC(=O)c1c(C)[nH]c(C)c1C(=O)COC(=O)c1cccnc1OCC	-15.0	.	.	5.7	0.7	1.7	.	6.8
COc1cc(CNC(=O)c2cnc(C)cn2)cc(OC)c1	-8.1	i	6.8	-0.5	2.2	0.1	-3.1	-68.9
CCCc1cc(=O)[nH]c(SCC(=O)Nc2sc(C(N)=O)c(C)c2C(=O)OCCOC)n1	93.6*	.	.	-6.1	-19.5	0.1	.	.
COc1ccccc1N1CCN(Cc2nc(N)nc(Nc3ccc(C)c(Cl)c3)n2)CC1	13.4	i	-4.5	-16.0	4.2	-4.2	-4.4	24.6
CC1SC(=NC(=O)c2ccncc2)NC1=O (stereo not drawn)	-10.0	i	-2.5	.	6.2	9.4	-1.8	17.1
CCOc1ccccc1NC(=O)CSc1nnc(-c2ccccn2)n1Cc1ccco1	-5.2	.	5.0	-6.8	0.7	8.1	-8.3	8.1
COc1ccc(-c2cc(C(=O)NC3CC3)c3ccccc3n2)cc1	-9.5	i	.	5.9	0.8	-1.0	.	-5.7
CS(=O)(=O)N(Cc1ccccc1)c1ccc(C(=O)NC2CCCCC2O)cc1 (stereo not drawn)	-3.6	i	-8.5	.	2.8	4.0	-3.7	.
Cc1ccccc1-n1c(C)nnc1SCC(=O)N1CC(=O)Nc2ccccc21	-2.4	i	-6.6	-2.1	-4.5	2.4	-0.1	.
C=CCCC(=O)N1C[C@H]2CON(C)[C@H]2C[C@H]1c1ccccc1Br	.	.	.	-17.0	1.2	4.7	.	-3.2
CC(C)(O)C(O)COc1c2ccoc2cc2oc(=O)ccc12 (stereo not drawn)	-4.4	i	4.5	-6.6	-3.7	-2.0	24.7	.
CCOc1ccc(Cl)cc1-c1cc(C(=O)NCc2ccccc2)[nH]n1	.	.	.	-15.3	-3.9	-6.7	.	-32.6
Cc1ccc(CCNCc2c(C(=O)O)c(C)n(-c3ccccc3)c2C)cc1	.	i	-8.8	-5.2	-0.1	-0.6	-7.6	-13.1
O=S(=O)(c1ccc(F)cc1)c1nc(-c2ccco2)oc1Nc1ccccc1	10.9	i	0.2	-4.5	-4.4	-5.6	46.2	65.5*
COc1ccc(NC2CCCN(C(=O)c3ccc(C(C)=O)s3)C2)cc1 (stereo not drawn)	8.2	i	-12.5	-2.9	-5.3	1.2	1.9	-9.8
CC(=O)N1CCN(Cc2nc3cc(NC(=O)c4cccc(Br)c4)ccc3n2C)CC1	-3.0	i	-1.9	-20.9	-2.5	-26.5	3.9	11.6
Cc1ccc(Sc2oc(/C=N/n3cnnc3)cc2Br)cc1	2.6	i	-6.6	-22.1	1.9	-0.2	-1.4	.
c1ccc(-c2ccc(CN3C[C@@H]4C(c5ccccc5)C5(c6cccnc6)CC4(C5)[C@H]3c3ccccc3)cc2)cc1 (stereo partly drawn)	19.8	i	-3.7	-11.4	-0.2	-9.5	-7.7	9.8
COc1ccccc1C(CNC(=O)c1oc2ccccc2c1C)N1CCCC1 (stereo not drawn)	9.7	.	.	-1.4	-5.2	0.2	.	3.9
(listing goes on)
SMILES	CSC inhib	Rce1 inhib	eIF4H inh	UUG fidelity	MT1-MMP act inh	MT1-MMP act inh RFP	PABP FP inh	Env fusion inh	others
Cc1ccc(C(C(=O)NC2CCCC2)N(Cc2ccc3c(c2)OCO3)C(=O)c2snc(C(N)=O)c2N)cc1 (stereo not drawn)	8.1	i	-1.6	6.1	-5.5	-4.1	-8.1	-0.6
CC(Sc1nc2ccccc2s1)C(=O)N1CCOCC1 (stereo not drawn)	0.5	i	-1.6	-5.5	-0.2	-0.9	13.0	-11.2
COc1ccc(S(=O)(=O)Nc2ccc(NC(C)=O)cc2)cc1Br	-7.9	i	9.5	.	1.6	4.6	-10.6	-3.6
COC(=O)CNC(=O)/C=C/c1ccc(OC)cc1	-18.7	i	-6.9	-0.1	1.9	1.6	0.4	.
